AID504770 – growth inhibitors of E. coli YBA685 in a screen for V. cholerae RctB (chromosome II replication) inhibitors; z-score (no concentration beside the values); E. coli YBA685 rctB-dependent plasmid, OD600 growth, 3 h; hits give low values; 0.27% of 130,000 active;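 active means z-score under -2 on both plates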;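 further: wells of about 30 µL received 100 nL stock; score is relative to mean and SD of the test wells; the first replicate is given; strong numbers were not always called active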
CapD inh – CapD enzyme inhibition; purified CapD enzyme, fluorescence intensity read-out; hits give low values; some hits fall short of the stated cut; z-score (no concentration beside the values); 0.23% of 140,000 active; AID 492967;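 active means z-score under -4 in either of two replicates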;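 further: stock transfer was 100 nL into about 40 µL; score is relative to mean and spread of the plate; one replicate is shown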
The depositor's hits bear a star; x = no result given. No enrichment for hits; about 0.41% have a hit in one of these screens.

SMILES,AID504770,CapD inh
COc1cccc(C(O)(C(=O)NNc2ccccc2C)c2cccc(OC)c2)c1,x,0.305
Cc1csc(-c2snnc2C)n1,-0.55,-0.11
O=C(O)c1c(NC(=O)C2CCCC2)sc2c1CCC2,0.15,x
NC(=O)c1cc2cc(F)ccc2[nH]1,-1.2,16.9
CCC(Sc1nnc2c3ccccc3n(CC)c2n1)C(=O)Nc1ccccc1OC (stereo not drawn),-0.25,0.09
COC(=O)c1c(C)sc2c(C(F)(F)F)cc(=O)[nH]c12,-0.45,66.9
Cc1nnc2sc(-c3ccc(N)cc3)nn12,-0.85,x
O=C(/C=C/c1ccco1)N(c1ccccn1)c1ccccn1,-0.05,-2.12
CCOC(=O)/C(C)=N/Nc1cc(C(F)(F)F)ccc1N1CCOCC1,-0.7,-1.23
CCC1(C)NC(=O)N(/N=C/C=C2\N(C)c3ccccc3C2(C)C)C1=O (stereo not drawn),-0.35,x
CC(C)c1ccc(N2C(=O)Cc3c2nc(N)c2c(N)nc(N4CCCC4)c(C#N)c32)cc1,0.1,x
CCOP(=O)(C(NC(=O)c1ccc(Cl)cc1)=C(Cl)Cl)c1ccccc1 (stereo not drawn),x,0.29
Cc1ccc(C(=O)N/C(=C\c2cccs2)C(=O)N2CCOCC2)cc1C,x,-0.335
COc1ccc(OC)c(C2CC(=O)C3=C(C2)NC(=O)CC3c2cccc(O)c2)c1 (stereo not drawn),0.05,-0.515
CCOC(=O)c1cnc(Nc2nc3ccccc3o2)nc1CSc1ccc(C)cc1,-0.35,-0.745
COc1ccc(C2C(C(=O)OC(C)C)=C(C)NC3=C2C(=O)CC(c2ccc(Cl)cc2)C3)c(OC)c1 (stereo not drawn),x,34.6
N=c1c2cnn(-c3ccccc3)c2ncn1/N=C/c1ccc(Cl)cc1Cl,0.95,2.48
Cc1ccc(C(=O)NNc2ncnc3cc(-c4ccc(C(C)(C)C)cc4)sc23)cc1,x,0.205
CCOC(=O)c1cc2c(C(F)(F)F)nn(C)c2s1,x,-0.115
CCN=c1scc(-c2ccccc2)n1/N=C/c1ccc(NC(C)=O)cc1,1.05,x
COC(=O)c1ccc(S(=O)(=O)N(Cc2ccccc2)Cc2ccccc2)n1C,-0.45,-0.055
c1ccc(C23CC4CN(CCN(C4)C2)C3)cc1,0.6,0.415
COc1cccc(C2C(C(=O)Nc3nc4ccc(Br)cc4s3)=C(C)NC3=C2C(=O)CCC3)c1OC (stereo not drawn),x,9.3
O=C(CSC1=NCCN1)NC12CC3CC(CC(C3)C1)C2,0.95,0.29
Cc1cccc(-n2c(O)c(C=Nc3ccccc3)c3ccccc3c2=O)n1,0.6,-0.685
CS(=O)(=O)c1nc(S(=O)(=O)c2ccc(Cl)cc2)c(N2CCCC2)s1,-0.35,x
O=c1cccc(-c2ccc(Br)cc2)o1,-0.85,-0.605
O=C1/C(=C/c2ccc(-c3cccc(Cl)c3)o2)NC(=S)N1C1CCCCC1,-0.95,0.3
COC(=O)c1cc(-c2ccccc2OC)nc2c1c(C)nn2CCC#N,-0.4,x
Cc1c(/C=C/c2ccc(Cl)cc2Cl)c(=O)n(-c2ccccc2)n1C,-0.5,-0.66
CS(=O)(=O)N1CCCN2C(=O)c3ccccc3C21 (stereo not drawn),-0.3,0.735
Cc1cc2nc(Cc3cc(Br)ccc3F)c(=O)[nH]c2cc1C,x,-0.04
Cc1ccc(CSc2nnc(-c3ccncc3)n2CC(C)C)cc1,-0.7,0.175
COCCN(C1CCN(C)CC1)S(=O)(=O)c1ccc(NC(=O)C(c2ccccc2)c2ccccc2)cc1,x,-0.145
COc1cc(C2C3=C(c4ccccc4C3=O)N(C(C)=O)c3c2c(=O)n(C)c(=O)n3C)ccc1OC(C)=O (stereo not drawn),x,-0.05
CCCn1c(=O)c2sccc2n2c(CCCC(=O)N3CCC(C)CC3)nnc12,0.75,-0.36
COc1cccc(-c2nc(-c3ccccc3)nc(N3CCN(C)CC3)c2C#N)c1,x,0
O=C(Nc1ccc2[nH]ccc2c1)c1ccccc1,0.35,0.795
COc1cc(C(=O)Nc2cccc(-c3nc4cc(Cl)ccc4o3)c2C)cc(OC)c1OC,0.65,0.115
Cc1cc(C(=O)O)ccc1-c1ccc(/C=C2\SC(=S)NC2=O)o1,1.5,-9.45*
Cc1ccc(NC(=O)Cn2c3ccccc3c(=O)c3cc([N+](=O)[O-])ccc32)c(C)c1,x,0.515
CCN(C(=O)c1cnc(SC)cc1C(F)(F)F)c1ccc(Cl)cc1,-1,-0.7
Cc1ccc(C(=O)N/C(=C\C=C/c2ccccc2)C(=O)NCC2CCCO2)cc1 (stereo not drawn),0.05,-1.89
Cc1ccc(CNCc2c(C(=O)O)c(C)n(Cc3ccccc3)c2C)cc1,-0.45,36.7
O=C(NCc1ccc2c(c1)OCO2)c1cc2cc(Cl)ccc2[nH]1,3.65,1.06
N#CC(C(=O)c1cc2ccccc2o1)c1ccc2ccccc2n1 (stereo not drawn),0,-0.76
COc1cc(/C=C2\N=C(c3ccc(Cl)c([N+](=O)[O-])c3)OC2=O)ccc1OC(C)=O,x,0.045
O=C(COc1ccccc1Cl)N/N=C/c1cccc2c1OCO2,x,20.1
Cc1ccc2cc(CCNC(=O)c3ccc4c(c3)OCO4)c(=O)[nH]c2c1C,-1.2,x
O=C(Nc1ccc(NS(=O)(=O)c2ccc(Br)c(C(=O)Nc3ccccc3)c2)cc1)c1ccccc1,x,0.985

New compounds follow.
SMILES,AID504770,CapD inh
O=C(COC(=O)/C=C/c1ccc(I)o1)NC1CC1,-0.65,-0.625
Cc1ccsc1/C=N/NC(=O)CO,2.15,x
O=C(CCC(=O)NC1CC1)NNc1nc2ccccc2c2nc(-c3ccccc3)nn12,0.35,-1.09
CCOc1cc(CNc2ccc(N(CC)CC)cc2)ccc1OCC(=O)NC(C)(C)C,-0.1,4.33
O=C(CN1CCCCC1)N1CCc2ccccc21,-0.4,x
COc1ccc(-c2csc(N(CC(C)C)C(=O)c3cccs3)n2)cc1,-0.1,x
O=C(CS)Nc1nc2c3ccccc3ncn2n1,-1.1,x
O=C(O)C1=NN(c2ccccc2)C(=O)/C1=C/c1cccs1,2.5,37.7
COc1c(Cl)cc(Cl)cc1/C=c1\sc2nc(-c3ccccc3)c(-c3ccccc3)n2c1=O,x,-0.42
Cc1cc(C)c(N=C2c3ccccc3-c3ncccc32)c(C)c1,x,-0.56
O=C(O)c1ccc(C(F)(F)F)o1,x,0.195
Cc1ccc(OCc2nnc(SCc3c(F)cccc3Cl)n2-c2ccccc2)c2c1CCC2,x,0.575
O=C(O)c1ccc([N+](=O)[O-])c2c1NC(c1ccc([N+](=O)[O-])cc1)C1CC=CC21 (stereo not drawn),x,-0.525
CCN1C(=O)CSc2ccc(C(=O)OC)cc21,-0.6,0.72
CNC(=S)N1CCN(S(=O)(=O)c2ccc3ccccc3c2)CC1,-0.5,x
CCC/C=C(\CC)C[N+]1(C)CCCCC1,0,0.42
COCCOC(=O)C1=C(N)OC(C)=C(C(=O)OCc2ccccc2)C12C(=O)Nc1ccccc12 (stereo not drawn),x,-0.045
O=C(NCC(=O)N1CCc2ccccc2C1)c1ccccc1Cl,-0.5,x
CCOC(=O)C(C)Oc1ccc(C#N)cc1OC (stereo not drawn),0.3,0.5
O=C(NC(=S)NC1CC1)c1cccnc1,0,x

Ordered by formula weight (largest number first): 15 of the compounds above
SMILES,AID504770,CapD inh
COCCN(C1CCN(C)CC1)S(=O)(=O)c1ccc(NC(=O)C(c2ccccc2)c2ccccc2)cc1,x,-0.145
CCOC(=O)c1cnc(Nc2nc3ccccc3o2)nc1CSc1ccc(C)cc1,-0.35,-0.745
CCOP(=O)(C(NC(=O)c1ccc(Cl)cc1)=C(Cl)Cl)c1ccccc1 (stereo not drawn),x,0.29
CS(=O)(=O)c1nc(S(=O)(=O)c2ccc(Cl)cc2)c(N2CCCC2)s1,-0.35,x
CCCn1c(=O)c2sccc2n2c(CCCC(=O)N3CCC(C)CC3)nnc12,0.75,-0.36
COC(=O)c1ccc(S(=O)(=O)N(Cc2ccccc2)Cc2ccccc2)n1C,-0.45,-0.055
COc1cccc(C(O)(C(=O)NNc2ccccc2C)c2cccc(OC)c2)c1,x,0.305
Cc1c(/C=C/c2ccc(Cl)cc2Cl)c(=O)n(-c2ccccc2)n1C,-0.5,-0.66
Cc1cc(C(=O)O)ccc1-c1ccc(/C=C2\SC(=S)NC2=O)o1,1.5,-9.45*
O=C(O)c1c(NC(=O)C2CCCC2)sc2c1CCC2,0.15,x
CCOC(=O)c1cc2c(C(F)(F)F)nn(C)c2s1,x,-0.115
CS(=O)(=O)N1CCCN2C(=O)c3ccccc3C21 (stereo not drawn),-0.3,0.735
O=c1cccc(-c2ccc(Br)cc2)o1,-0.85,-0.605
O=C(Nc1ccc2[nH]ccc2c1)c1ccccc1,0.35,0.795
NC(=O)c1cc2cc(F)ccc2[nH]1,-1.2,16.9

New compounds follow
Value order: AID504770 | CapD inh
Cc1ccc(Cn2c(=S)[nH]c3ccccc32)cc1
→ 1.75 | x
COc1ccc(-c2[nH]nc3c2C2(C(=O)N(CC(=O)O)c4ccccc42)C(C#N)=C(N)O3)cc1 (stereo not drawn)
→ x | 0.165
Cc1c(N2C(=O)CSC2c2ccc([N+](=O)[O-])cc2)c(=O)n(-c2ccccc2)n1C (stereo not drawn)
→ x | -0.955
CCOC(=O)c1c(C)n(-c2ccc(OC)cc2)c2cc(Br)c(OC)cc12
→ x | -0.965
COc1ccc(-n2c(C)cc3cc(OC(C)=O)ccc32)cc1
→ -0.1 | -0.145
CN(C)c1cc(C(=O)N2CCN(C(=O)c3cccc(C(F)(F)F)c3)CC2)nc(N(C)C)n1
→ x | 0.57
Cc1ccc(NC(=O)c2cc(-c3ccco3)on2)cc1
→ 0.15 | 11.7
O=C(Nc1ccc(CSc2ccc(Cl)cc2)cc1)c1c(F)cccc1F
→ x | -0.635
O=C(Nc1ccc(-c2nc3c(ccc4ccccc43)o2)cc1)c1ccco1
→ 0.3 | 1.23
O=C1OC(c2ccccc2)=N/C1=C/c1ccc(Cl)cc1
→ x | 1.83
CN(C)S(=O)(=O)c1cccc(C(=O)O)c1
→ -0.55 | 0.535
O=C(COC(=O)c1ccccc1Cl)Nc1nccs1
→ 2.35 | x
N#C/C(=C\c1ccccc1Cl)c1nc2ccccc2[nH]1
→ x | 3.41
COCCCn1c(-c2cccc(OC)c2)nc2nc3ccccc3nc21
→ 0.3 | x
O=C(CCC1(C(=O)O)CCC(=O)NC1)NCc1ccccc1 (stereo not drawn)
→ 0.55 | 1.13
CN(C)CCCNCc1ccccn1
→ 0.4 | 0.16
COC(=O)C1=C(C)OC(N)=C(C#N)C12C(=O)Nc1ccc([N+](=O)[O-])cc12 (stereo not drawn)
→ x | -1.4
CCOC(=O)c1cc(C(=O)OC)c(C)nc1N1CCC(NC2CCCCC2O)CC1 (stereo not drawn)
→ 0.45 | 1
COc1ccc(S(=O)(=O)N2CCC(C)CC2)cc1C(=O)O
→ -0.9 | 0.01
CCN(CC)c1ncnc2sc(C(=O)Nc3ccc(Cl)cn3)c(C)c12
→ x | 40.9
Cn1c(=O)n(C)c2cc(N3CCCCC3)c(NS(C)(=O)=O)cc21
→ -0.55 | 1.14
O=C1CSC(=O)N1CC(O)COc1cccc2ccccc12 (stereo not drawn)
→ -0.45 | x
Cc1nc(-c2cccs2)sc1-c1ccn[nH]1
→ -0.55 | 89.4
CCCCNC(=O)Nc1cccc(-c2nnco2)c1
→ 0.8 | 0.675
CN(CCO)c1cc(N2CCN(C3CCCCC3)CC2)c2nonc2c1[N+](=O)[O-]
→ x | -0.785
CN(C)c1ccc(-n2nnnc2SCc2ccc(Cl)cc2)cc1
→ 0 | -0.47
CCc1ccccc1N(C)S(=O)(=O)c1ccc2[nH]cc(C(=O)O)c(=O)c2c1
→ x | 1.47
COc1ccc2nc(Cl)c(CN(Cc3ccc(F)cc3)C(=O)c3ccco3)cc2c1
→ -0.15 | x
CN(CC(=O)Nc1ccccc1SCC#N)Cc1ccc(-c2ccc(Br)cc2)o1
→ -1.65 | x
CCCN1CCC(N(C(=O)c2cccc(NC(=O)c3ccc([N+](=O)[O-])cc3)c2)C2CC2)CC1
→ x | -0.515
CCOC(=O)C(C)Oc1ccc2oc(=O)cc(C)c2c1 (stereo not drawn)
→ -0.2 | 28.4
CCN1CCCC1CNCc1cc(=O)n2ccc(C)cc2n1 (stereo not drawn)
→ 1 | x
CCOC(=O)c1sc(-c2ccccc2)cc1NC(=O)COC(=O)COc1cc(C)on1
→ -0.1 | x
O=C1CSc2sc(=S)sc2SC1
→ x | -0.78
O=C1CSCC(=O)N1c1cccnc1
→ -1 | -0.11
Cc1cccc(Nc2ccccc2C(=O)OC(C)C(=O)N2CCN(C(=O)c3ccco3)CC2)c1C (stereo not drawn)
→ 2 | x
CCc1cc(-c2[nH]ncc2-c2ccc3c(c2)OCCO3)c(O)cc1O
→ 0.15 | 3.1
CSC1CCCCC1(O)CSc1nc2ccccc2o1 (stereo not drawn)
→ -0.3 | -0.205
Cc1ccc(C(=O)NCc2ccc3c(c2)OCO3)cc1C
→ -0.5 | -0.865
COC(=O)c1ccc(N=C2SC(C(=O)O)CC(=O)N2C)cc1 (stereo not drawn)
→ -0.1 | 0.2
O=C(NCCOc1ccc(Cl)cc1)c1ccccc1Cl
→ -0.4 | 0.02
CN(C1CCN(Cc2cc3ccccc3o2)C1)S(=O)(=O)c1ccc(Cl)cc1Cl (stereo not drawn)
→ x | -1.26
C=CCn1c(/N=C/c2ccc(OCCC(C)C)cc2)nc2ccccc21
→ 0.5 | -0.105
O=C1CC(c2ccccc2)N(c2ccc(Cl)cc2Cl)C(=S)N1 (stereo not drawn)
→ -0.1 | 0.08
CCC(=O)Nc1nnc(SCCOC)s1
→ -0.8 | x
CCCC1=C(C(=O)OCC)C2(C(=O)Nc3ccc(C)cc32)C(C#N)=C(N)O1 (stereo not drawn)
→ x | 0.35

Given with each value named: 2 of the compounds above
> CN(C1CCN(Cc2cc3ccccc3o2)C1)S(=O)(=O)c1ccc(Cl)cc1Cl (stereo not drawn)
  AID504770: x; CapD inh: -1.26
> C=CCn1c(/N=C/c2ccc(OCCC(C)C)cc2)nc2ccccc21
  AID504770: 0.5; CapD inh: -0.105
